miR-21 reporter: raises the signal of a miR-21 reporter. HeLa miR-21 FLuc reporter, luciferase, 48 h. Potency, µM (titrated, usually from 38.3 µM), inactives show at the highest dose reporter change, positive = more light. 340,000 tested, under 10 active. AID 2288; active = well fitted rising curve with a large enough effect; inconclusive = small, poorly fitted or top-dose-only effect; inactive = no such curve, though single readings can be large or run the other way;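 further: % of control where 0% means no effect; miR-21 action dims this reporter so a rising signal means less miR-21 action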
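HeLa cells stably expressing CMV-driven firefly luciferase with a downstream miR-21 binding sequence, endogenously expressing miR-21, were treated with titrations (up to about 40uM final) for 48 hours at 37 degree Celsius. Luciferase luminescence was read after lysis.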
Rango release inh: prevents RanGTP from dissociating the Rango-importin beta complex | actives 0.071% (n = 340,000) | Biochemical FRET Rango-importin beta, RanGTP-induced dissociation | AID 540253 | Potency, µM (doses to about 46.1 µM), inactives show at the top dose activity change, negative = inhibition; active means falling FRET ratio curve, often poorly fitted, with flat reads before Ran was added; inconclusive means other falling curves, or compound fluorescence or quenching; inactive means flat or rising ratio curve;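 further: potency means the concentration at half of the fitted maximal effect; % of control where 0% means no effect; nearly all actives have a fitted effect of over 45% in size; -100% = wells without RanGTP and RCC1; the record marks most hits as doubtful in a second field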
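Two FRET readings bracket the reaction: one 5 min after compound meets Rango–importin beta, another 45 min after RanGTP-RCC1 (0.6 uM Ran, 0.2 uM RCC1, 2 mM GTP) is added. Only the second defines inhibition.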
GLA inh pH 4.5: blocks human alpha-galactosidase A at pH 4.5. P06280. purified enzyme, 4-MU-alpha-Gal fluorescence, pH 4.5. activity change, negative = inhibition, % at 105 µM. 230,000 tested, under 10 active. AID 1467; inconclusive = small, poorly fitted or top-dose-only inhibition, or a rising curve; inactive = flat fitted curve, though single readings scatter; no compound was filed as active;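 further: 0% = full activity with enzyme and -100% = basal without enzyme; dose as in the result columns while the protocol names 77 µM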
Rango-impB inh: Rango-importin beta binding inhibition | Rango CFP/YFP FRET sensor + importin beta, 45 min | AID 540263 | Potency, µM (doses to about 92.2 µM), inactives show at the highest dose inhibition of complex formation | Q14974 | actives 0.031% (n = 340,000); active = rising FRET ratio curve, often small or poorly fitted; inconclusive = mostly compound fluorescence or quenching in the first reads; inactive = flat curves in all reads;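 further: potency means the concentration at half of the fitted maximal effect; 0% = DMSO wells and 100% = buffer wells lacking importin beta; nearly all actives have a fitted effect of over 15% in size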
Target sequence (Q14974 whole entry, looked up): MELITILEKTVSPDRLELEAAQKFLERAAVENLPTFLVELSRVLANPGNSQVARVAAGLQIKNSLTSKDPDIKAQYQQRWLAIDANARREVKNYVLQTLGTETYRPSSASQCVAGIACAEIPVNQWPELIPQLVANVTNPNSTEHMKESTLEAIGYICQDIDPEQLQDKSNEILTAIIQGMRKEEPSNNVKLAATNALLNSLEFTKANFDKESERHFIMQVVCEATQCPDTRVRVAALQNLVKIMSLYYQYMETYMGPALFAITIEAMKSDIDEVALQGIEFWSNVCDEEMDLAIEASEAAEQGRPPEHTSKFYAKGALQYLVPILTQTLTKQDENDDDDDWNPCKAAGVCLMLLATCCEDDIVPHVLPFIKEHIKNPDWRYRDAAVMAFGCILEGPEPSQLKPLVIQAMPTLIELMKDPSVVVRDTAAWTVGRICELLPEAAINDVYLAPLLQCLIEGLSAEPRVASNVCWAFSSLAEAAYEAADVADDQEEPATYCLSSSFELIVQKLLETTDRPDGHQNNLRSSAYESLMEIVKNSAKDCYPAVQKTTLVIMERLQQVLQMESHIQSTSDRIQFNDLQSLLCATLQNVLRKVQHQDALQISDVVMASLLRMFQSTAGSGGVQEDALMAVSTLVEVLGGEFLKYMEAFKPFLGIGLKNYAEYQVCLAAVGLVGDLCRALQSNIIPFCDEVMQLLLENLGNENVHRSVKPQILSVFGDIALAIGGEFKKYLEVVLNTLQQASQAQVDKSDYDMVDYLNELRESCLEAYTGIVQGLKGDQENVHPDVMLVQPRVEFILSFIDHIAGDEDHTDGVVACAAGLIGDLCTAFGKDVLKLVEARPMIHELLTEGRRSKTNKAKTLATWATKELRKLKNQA
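Inhibition scored from the CFP 486 nm/YFP 530 nm FRET ratio 45 min after adding 0.125 microM importin beta to 50 nM Rango biosensor preincubated 5 min with compound (room temperature, PBS with DTT, Tween-20, BSA). No-importin wells as positive control.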
Starred values were filed as active, the others as inactive; ? = inconclusive; · = not tested or not shown. These rows are one share of the data; the hit share may differ from the screen's.

SMILES | miR-21 reporter | Rango release inh | GLA inh pH 4.5 | Rango-impB inh
CC(N=C1NS(=O)(=O)c2ccccc21)C(=O)N1CCc2ccccc2C1 (stereo unspecified) | -36% | -11% | -11 | 4.4%
COc1cccc(C(=O)OCn2nnc3ccccc3c2=O)c1 | -5% | 14% | 3 | -0.6%
O=C(CCC(=O)c1ccc(F)cc1)Nc1ccccc1Cl | -34% | -10% | 1 | -8.9%
N#CC1c2ccccc2C=CN1C(=O)N(c1ccccc1)c1ccccc1 (stereo unspecified) | · | -7% | · | 1.0%
O=C(CSc1nnc(-c2cccc(S(=O)(=O)N3CCCC3)c2)n1-c1ccccc1)Nc1ccc(C(=O)O)cc1 | 1% | -12% | -3 | -5.3%
CCCNS(=O)(=O)c1ccc(NC(=O)Cc2cccs2)cc1 | -36% | 0% | 3 | 0.0%
CNC(=O)Nc1ccc2nc(C)sc2c1 | 1% | -3% | 9 | ?
Oc1c(Cl)cc(Cl)cc1CNn1cnnc1 | -10% | -13% | -4 | ?
CC(=O)OC(CC(=O)O)C[N+](C)(C)C (stereo unspecified) | -6% | 18% | · | 2.7%
CCOc1ccc(Cl)cc1S(=O)(=O)NCc1ccccn1 | -1% | 25% | -7 | -2.0%
Cc1ccc(CNC(=O)CN(C)S(=O)(=O)c2ccc(F)cc2)cc1 | · | -10% | · | -4.7%
Cc1cc(C(C)(C)C)cc(C)c1CCNC(=O)c1c(C)noc1C | · | -16% | · | 4.8%
COC(=O)c1cccc(S(=O)(=O)N2CCC(NC(=O)NC34CC5CC(CC(C5)C3)C4)CC2)c1 | 0% | 1% | -8 | -0.2%
COc1cc(Cl)c(C)cc1NC(=O)c1cccc(OC)c1OC | -60% | 8% | 1 | ?
CC(NNC(=S)N1CCN(c2ccccn2)CC1)c1nccc2ccccc12 (stereo unspecified) | · | -7% | · | -3.8%
N#Cc1cc2c(nc1SCc1ccccc1)CCC2 | -8% | 4% | -22 | -0.1%
NC(=O)c1ccc(NC(=O)COC(=O)c2ccc3ccccc3n2)cc1 | · | -6% | · | ?
COC(=O)C/C=C/[C@@H](C)[C@@H](/C=N/OC[C@H]1O[C@H](c2ccccc2)C=C[C@@H]1Oc1ccc(OC)cc1)NS(=O)(=O)c1ccc(C)cc1 | -7% | · | -10 | ·
COc1ccc(C(C)=O)cc1COc1ccccc1[N+](=O)[O-] | -8% | 1% | -9 | 2.4%
C=C(C)CN(CC)C(=O)CSc1nc2ncc(Cl)cc2[nH]1 | -8% | 3% | 0 | 1.8%
COc1ccc(Cl)cc1NC(=O)C1CCCN(c2ncnc3c2nc2n3CCCCC2)C1 (stereo unspecified) | 0% | -7% | · | 1.9%
Cc1nnc(NC(=O)C2CCN(c3cnccn3)CC2)s1 | -1% | 19% | -15 | 3.8%
Cc1cc(C)c2c3c(c(-c4ccccc4)n2n1)c(=O)n(C)c(=O)n3C | · | -7% | · | -3.8%
O=C(NCC1CCCCC1)c1cc(S(=O)(=O)N2CCCCC2)ccc1N1CCOCC1 | -11% | -5% | -5 | -2.1%
CC(C)(C)OC(=O)N(Cc1ccccc1)Cc1ccc(OCc2cccc(NC(=O)c3ccccc3)c2)cc1 | · | -5% | · | 1.5%
COc1cccc(-c2ccc(-c3noc(-c4ccccc4F)n3)c(OC)n2)c1 | -7% | 10% | -6 | 0.9%
CC(C)(C)c1cc(CCC(=O)NCC2CCCO2)cc(C(C)(C)C)c1O (stereo unspecified) | 1% | -5% | · | -0.9%
COc1ccc(S[C@@H](CCN2CC[C@H](C)CCC2=O)c2ccccc2)cc1 | · | -5% | · | 0.2%
Cc1ccc(S(=O)(=O)/N=C(/Nc2ccc(F)cc2F)c2ccccc2)cc1 | -5% | 0% | · | -1.4%
CCOc1ccc(CCNC(=O)CSCC(=O)Nc2ccc(OC)cc2)cc1OCC | · | 19% | · | -0.3%

Filtered by structure: the compounds so far containing four or more nitrogen atoms
SMILES | miR-21 reporter | Rango release inh | GLA inh pH 4.5 | Rango-impB inh
O=C(CSc1nnc(-c2cccc(S(=O)(=O)N3CCCC3)c2)n1-c1ccccc1)Nc1ccc(C(=O)O)cc1 | 1% | -12% | -3 | -5.3%
Oc1c(Cl)cc(Cl)cc1CNn1cnnc1 | -10% | -13% | -4 | ?
CC(NNC(=S)N1CCN(c2ccccn2)CC1)c1nccc2ccccc12 (stereo unspecified) | · | -7% | · | -3.8%
C=C(C)CN(CC)C(=O)CSc1nc2ncc(Cl)cc2[nH]1 | -8% | 3% | 0 | 1.8%
COc1ccc(Cl)cc1NC(=O)C1CCCN(c2ncnc3c2nc2n3CCCCC2)C1 (stereo unspecified) | 0% | -7% | · | 1.9%
Cc1nnc(NC(=O)C2CCN(c3cnccn3)CC2)s1 | -1% | 19% | -15 | 3.8%
Cc1cc(C)c2c3c(c(-c4ccccc4)n2n1)c(=O)n(C)c(=O)n3C | · | -7% | · | -3.8%

(further entries)
SMILES | miR-21 reporter | Rango release inh | GLA inh pH 4.5 | Rango-impB inh
C=CCn1c2ccccc2c(=O)c2cc(C#CC[C@@H](C)O)ccc21 | · | ? | · | ?
CC1CCCCC1NC(=O)CCS(=O)(=O)c1ccc(Cl)cc1 (stereo unspecified) | · | 14% | · | 3.1%
COc1ccc2c(c1)CCc1c(C(=O)N3CC4(C)CC3CC(C)(C)C4)noc1-2 (stereo unspecified) | 7% | -9% | -8 | -1.4%
C/C(=N\NC(=O)c1ccc([N+](=O)[O-])cc1)c1cc2ccccc2oc1=O | 15% | 5% | -2 | -0.1%
CC(=O)N1CCOc2ccc(S(=O)(=O)Nc3ncccc3C)cc21 | -1% | -1% | · | -5.9%
O=C(OCCN1C(=O)c2ccccc2C1=O)c1cc(S(=O)(=O)N2CCOCC2)ccc1Cl | -2% | 4% | -3 | -3.6%
Cn1c(SCc2ccccc2C#N)nnc1-c1ccncc1 | 1% | -9% | · | -0.7%
O=C(NCCNc1cc(Cl)ccc1[N+](=O)[O-])c1ccco1 | -27% | -19% | -11 | 3.1%
CCOC(=O)/C(C#N)=C/c1cc(C)n(-c2ccc(C)cc2)c1C | -56% | -11% | -9 | -0.7%
Cn1c(N)c(C(C[N+](=O)[O-])c2ccccc2Cl)c(=O)n(C)c1=O (stereo unspecified) | · | -5% | · | 0.2%
COc1ccc(C(c2nnnn2C2CCCC2)N2CCN(c3ccccc3)CC2)cc1 (stereo unspecified) | -3% | 1% | -8 | -0.5%
COC(=O)NNC(=O)c1ccc(C)c(Br)c1 | -4% | 5% | 9 | -1.4%
Cc1cc2oc(=O)cc(-c3ccccc3)c2c(C)c1-c1ccc(C#N)cc1 | · | 3% | -11 | -1.1%
O=C(COC(=O)CCCN1C(=O)c2cccc3cccc(c23)C1=O)NC1CCS(=O)(=O)C1 (stereo unspecified) | · | 17% | · | 1.0%
COCCN(C(=O)COC(=O)Cc1cccc2ccccc12)c1c(N)n(Cc2ccccc2)c(=O)[nH]c1=O | -1% | 10% | · | 0.6%
O=C(CCl)Nc1cc(-c2ccccc2)nn1-c1ccccc1 | ? | -11% | 3 | -0.8%
CCN(CC)S(=O)(=O)c1cc(C(=O)Nc2cc(S(=O)(=O)N3CCOCC3)ccc2N2CCCC2)ccc1F | · | -9% | · | -0.5%
CC1=C(C(=O)Nc2cccc(C(=O)NCc3ccccc3C)c2)SCCO1 | 4% | 10% | · | -0.7%
CCOC(=O)N1CCN(S(=O)(=O)c2ccc(Br)s2)CC1 | 1% | -13% | -4 | -0.1%
CCOC(=O)C1CCN(C(=O)CSc2cc(=O)n(C)c3ccccc23)CC1 | 6% | 4% | 3 | -3.7%
O=C(NCc1ccncc1)c1cccc(S(=O)(=O)Nc2ccc(F)cc2)c1 | · | 8% | · | -0.4%
CCc1cc2c(=O)c(-c3ccc4c(c3)OCCO4)coc2c(CN2CCCCC2C)c1O (stereo unspecified) | -34% | 11% | · | 3.1%
Cc1c(C(=O)c2cccc([N+](=O)[O-])c2)c2ccccn2c1CCC#N | -10% | 17% | -2 | -1.6%
Cc1n[nH]c(=O)c2c(NC(=O)COC(=O)c3cccc(OC(F)F)c3)oc(C)c12 | · | 6% | · | 0.9%
O=C(CCCNC(=O)c1ccc(Cl)cc1)Nc1ccccc1F | 0% | ? | · | -0.4%
CC1(C(=O)Nc2c(F)c(F)c(F)c(F)c2F)CC1(Br)Br (stereo unspecified) | 4% | 13% | -1 | 3.7%
COc1ccc(C(O)(CCN2CCCCC2)C2CCCCC2)cc1 (stereo unspecified) | -1% | 1% | · | -0.9%
Cc1nnc(NC(=O)c2ccc(-c3ccc(Cl)cc3)o2)s1 | · | -5% | · | -1.5%
Cc1cc(C)n(-c2nc(SCCN(C)C)c3c4c(sc3n2)CCCC4)n1 | 26% | 0% | -10 | 0.9%
COC(=O)c1ccc(N2CCN(S(=O)(=O)c3ccccc3)CC2)c([N+](=O)[O-])c1 | 11% | -5% | -4 | 2.0%

Laid out differently: entries from further up.
Screens in order: miR-21 reporter, Rango release inh, GLA inh pH 4.5, Rango-impB inh
> Cc1n[nH]c(=O)c2c(NC(=O)COC(=O)c3cccc(OC(F)F)c3)oc(C)c12
 : ·, 6%, ·, 0.9%
> O=C(CCCNC(=O)c1ccc(Cl)cc1)Nc1ccccc1F
 : 0%, ?, ·, -0.4%
> CC1(C(=O)Nc2c(F)c(F)c(F)c(F)c2F)CC1(Br)Br (stereo unspecified)
 : 4%, 13%, -1, 3.7%
> COc1ccc(C(O)(CCN2CCCCC2)C2CCCCC2)cc1 (stereo unspecified)
 : -1%, 1%, ·, -0.9%
> Cc1nnc(NC(=O)c2ccc(-c3ccc(Cl)cc3)o2)s1
 : ·, -5%, ·, -1.5%

Continuation.
SMILES | miR-21 reporter | Rango release inh | GLA inh pH 4.5 | Rango-impB inh
COc1ccc(OC)c(NC(=O)CN(C)CCOc2ccc(Br)cc2)c1 | -8% | 17% | · | 0.6%
COc1ccc(C(CNS(=O)(=O)c2ccc(NC(C)=O)c(OC)c2)N2CCCCC2)cc1 (stereo unspecified) | · | 2% | · | 0.2%
Cc1ccc(NC(=O)CSc2nc(=O)n(CCCN(C)C)c3c2CCC3)c(C)c1 | · | -11% | · | 3.6%
Cc1ccc2c(c1)N(C(=O)CCC(=O)NCc1cccc(Cl)c1)CC(C)O2 (stereo unspecified) | 17% | 8% | · | -0.3%
S=c1[nH]nc(CN2CCCC2)n1Cc1ccccc1 | -2% | 17% | 2 | -7.8%
Sc1nnc(-c2ccc(Cl)cc2)n1Cc1ccccc1 | · | -4% | · | -1.8%
COc1cc(C)c(C(C)C)cc1S(=O)(=O)N1CCN(C)CC1 | -5% | 0% | 3 | -0.5%
O=C(Cc1ccc(S(=O)(=O)N2CCCC2)s1)NC1CCCCCC1 | -5% | -9% | -8 | -2.5%
COc1ccc(OC)c(C2=NOC(C(=O)Nc3cccc(C(C)=O)c3)C2)c1 (stereo unspecified) | -9% | -12% | 0 | -0.2%
O=C1C2CC=CCC2C(=O)N1CC1CCCO1 (stereo unspecified) | -3% | 9% | 3 | 1.7%
O=C(NC1CC1)c1ccc2snnc2c1 | -3% | -13% | 5 | -0.1%
Cc1nnc(SCC(=O)NC(=O)NC2CCCC2)n1N | 0% | -13% | 1 | 1.6%
Cc1ccc(C(=O)OCC(=O)Nc2sc3c(c2C#N)CCC3)cc1 | -9% | -15% | 13 | 0.2%
O=C(NNC(=O)c1cccc(-n2cccc2)c1)c1ccc(F)cc1 | · | -9% | · | -5.5%
Cn1c2ccc(F)cc2c2ncn(Cc3ccccn3)c(=O)c21 | -22% | 7% | -4 | 1.8%
N#CC(C#N)=Cc1ccc(-c2ccc(S(=O)(=O)N=C(N)N)cc2)o1 | -10% | ? | -3 | ?
CCN1C(=O)C(O)(CC(=O)c2ccc(-n3cccc3)cc2)c2ccccc21 (stereo unspecified) | -12% | 8% | -14 | 0.9%
CCC(C)C(=O)OCC1(c2ccc(C)cc2OC(=O)C(C)C)CO1 (stereo unspecified) | 25% | 6% | -4 | -0.6%
CC1(c2nnc(-c3ccc(F)cc3)o2)CC(c2ccc(Cl)cc2)=NO1 (stereo unspecified) | -2% | 17% | -3 | -0.2%
CC1CCN(C(=S)NC(=O)C2CCCCC2)CC1 | -16% | -1% | 5 | 1.2%
FC(F)(F)Oc1ccc(Nc2nc3ccccc3o2)cc1 | -49% | -9% | 1 | -0.3%

Screening results: PubChem BioAssay, National Center for Advancing Translational Sciences (NCATS)
